StopGo RLuc = lowers the Renilla signal of an FMDV 2A StopGo reporter | HEK cells with a luciferase reporter of 2A StopGo recoding | Potency, µM (titrated, usually from 57.5 µM), inactives show at the top dose signal change, negative = less light | 120,000 tested, 0.32% active | AID 1745857; active means well fitted falling curve with a large enough effect; inconclusive means small, poorly fitted or top-dose-only effect; inactive means no such curve, though single readings can be large or run the other way; note: nearly all actives have a fitted effect of over 55% in size; overnight with compound
StopGo FLuc = FMDV 2A StopGo reporter, firefly signal; HEK cells with a luciferase reporter of 2A StopGo recoding; Potency, µM (series often up to 57.5 µM), without a hit: at the highest dose signal change, negative = less light; 120,000 tested, 0.23% active; AID 1745856; active = well fitted falling curve with a large enough effect; inconclusive = small, poorly fitted or top-dose-only effect; inactive = no such curve, though single readings can be large or run the other way; note: nearly all actives have a fitted effect of over 60% in size; overnight with compound
Numbers without * were called inactive; ? = inconclusive; & = joins results of further samples; [ ] = another dose, or the depositor's remark. % is set by controls: 0 for no effect and ±100 for the full control effect; potency is the fitted concentration of half-maximal effect.

molecule | StopGo RLuc | StopGo FLuc
CCCN1CCCN(c2ccccc2C#N)CC1 | 11% | 0%
CC(Sc1nnc(-c2ccc3c(c2)OCO3)o1)C(=O)NC1CCCC1 (stereo not given) | -2% | 29%
O=C(/C=C/c1ccco1)Nc1ccc(Cl)c(-c2nc3cc(Cl)ccc3o2)c1 | -11% | 4%
CC(=O)c1ccc(NC(=O)CSc2nc3ccccc3c(=O)n2CC2CCCO2)cc1 (stereo not given) | 151%[activator] | 34%[activator]
Cc1ccc(-c2csc(/C(C#N)=C/c3cccnc3)n2)cc1 | 20% | 0%
COc1cccc(Cn2c(=O)n(-c3ccc(C)c(F)c3)c(=O)c3sc4ccccc4c32)c1 | -12% | -18%
O=C(Nc1ccc(Nc2ccccc2)nc1)c1cc[n+]([O-])cc1 | -1% | -8%
O=S(=O)(NCc1nc2cccnc2n1Cc1ccccc1Cl)c1ccc2c(c1)CCCC2 | 185%[activator] | -16%
Cc1ccc(C)c(C(=O)c2c(N)c(-c3nc(-c4ccc5c(c4)OCO5)cs3)c3ccccn23)c1 | 7% | 5%
Cc1c(C(=O)Nc2ccccc2Br)oc2ccc(S(=O)(=O)N3CCOCC3)cc12 | -5% | 3%
Cc1ccccc1-c1noc(-c2cccnc2NCc2ccco2)n1 | 1% | 120%[activator]
CCCCNC(=O)C(CC)Sc1nc2ccccc2c(=O)n1CCc1ccc(OC)c(OC)c1 (stereo not given) | -13% | -6%
Cn1c(CN2CCCC2)nc2cc(NC(=O)c3ccccc3Cl)ccc21 | -1% | 27%
O=C(Nc1c(Cl)cccc1Cl)C1=C(c2ccccc2)S(=O)(=O)CCO1 | 16µM* | ?
Cn1c(Oc2ccc(F)cc2)nc2c1c(=O)n(Cc1ccccc1Cl)c(=O)n2C | -15% | -19%
CCc1ccc(C(=O)C2CC(=O)Nc3c2c(C)nn3-c2ccc(C)c(Cl)c2)s1 (stereo not given) | 8% | 18%
Cc1[nH]c2ccccc2c1/C=C/C(=O)C(F)(F)F | 6% | 3%
CSc1ccc(/C=C2\C(=O)Oc3ccccc32)cc1 | -10% | 11%
CCOc1ccc(N(CC(=O)NCc2ccc(OC)cc2)S(=O)(=O)c2c(C)[nH]c(=O)[nH]c2=O)cc1 | -12% | -12%
CCc1ccc(CNCc2c(C(=O)O)n(Cc3ccc(C)cc3)c3cc(C)ccc23)cc1 | -19% | ?
COc1ccc(C)cc1S(=O)(=O)[C@H]1CS(=O)(=O)C[C@@H]1NCc1ccccn1 | -6% | -17%
Cc1ccc(C(=O)CC2(O)C(=O)N(CCc3ccccc3)c3ccc(Br)cc32)cc1 (stereo not given) | 43%[activator] | -27%
CCOC(=O)c1cccc(NC(=O)c2cc(-c3ccc(Cl)s3)nc3ccccc23)c1 | 2% | -9%
CNS(=O)(=O)c1cccc(C(=O)OCc2cc(=O)oc3c(C)c(C)ccc23)c1 | -7% | -13%
Cc1nc2ccccc2nc1SCC(=O)NC1CCCCC1 | 31% | 13%
COc1ccc(N2CCCCS2(=O)=O)cc1S(=O)(=O)N1CCCc2ccccc21 | 114%[activator] | 11%
Brc1ccc2c(c1)NC(c1cccnc1)=NC(c1ccccc1)=N2 | 44%[activator] | 55%[activator]
CN1CCN(c2cc(C(=O)O)c3cc(NC(=O)c4ccc(Cl)cc4)ccc3n2)CC1 | -1% | 6%
O=C(COc1ccc(Cl)cc1C1CCCCC1)NCCc1nnc2ccccn12 | ? | ?
CCOC(=O)C(C)NC(=O)c1c(C)oc2ncn(CC(C)C)c(=O)c12 (stereo not given) | 15% | 3%
CC(=O)OC(C)C[N+](C)(C)C (stereo not given) | 6% | 23%[11.5 µM]
COc1cc(C(=O)Nc2ccc3nn(-c4ccc(F)cc4)nc3c2)cc(OC)c1OC | -11% | -12%
CCCCn1c(CCCNC(=O)c2cccc(C)c2)nc2ccccc21 | -5% | 2%
Cc1ccc(-c2nnn3c2nc(N2CCC(C)CC2)c2ccccc23)cc1 | -14% | 97%[activator]
CC(C(=O)NC1CC1)N1CCC(c2cc3ccccc3[nH]2)CC1 (stereo not given) | -5% | 3%
COc1ccccc1C(=O)Nc1sc2c(c1C(N)=O)CCC(C)C2 (stereo not given) | 25% | 112%[activator]
O=C(CC1CC2CCC1C2)NCCc1ccccn1 (stereo not given) | 10% | 65%[activator]
COc1ccc(S(=O)(=O)n2nc(C)c(S(=O)(=O)N3CCC(C)CC3)c2C)cc1C | 32%[activator] | -15%
COc1ccc(C(=O)/C=C/c2ccc(OCC#N)c(OC)c2)cc1 | ? | ?
O=C1CC(c2ccc(Cl)cc2)c2cc(Br)c3ccccc3c2N1 (stereo not given) | -5% | -3%
CC(=O)c1cccc(NC(=O)c2ccc(-n3c(C)nnc3C)cc2)c1 | -5% | -3%
Cn1cc(C(C(=O)O)N2CCN(C=O)CC2)c2cc(C(=O)O)ccc21 (stereo not given) | 0% | 6%
Cc1cc2nc(SCC(=O)Nc3ccc(Br)cc3F)[nH]c(=O)c2[nH]1 | -27% | -17%
COC(=O)[C@@H](C)NC(=O)NCc1ccc(C)cc1 | -7% | -1%
COc1ccc(-c2nc(CN3CCC(C(=O)NCCCOC(C)C)CC3)c(C)o2)cc1OC | -14% | -4%
COc1cccc(CNC(=O)C2CCN(C(=O)c3sccc3-n3cccc3)CC2)c1 | -6% | 0%
Cc1c(CCC(=O)Nc2nccs2)c(=O)oc2c(C)c(O)ccc12 | -7% | 28%
CCc1nn2c(=O)cc(COC(=O)c3cccc(NC(=O)c4ccccc4Cl)c3)nc2s1 | -6% | 12%
CCN(c1ccccc1)c1nnc(NC(=O)Nc2ccc(Br)cc2F)s1 | 4% | -1%
COc1ccc(C(=O)NC2CC2)cc1C | -3% | 14%

Other compounds:
molecule | StopGo RLuc | StopGo FLuc
C/C(=N/Nc1ccccc1C(F)(F)F)c1cc(Cl)ccc1Cl | -4% | -4%
Cc1cccc(C)c1-n1nnnc1C(C)(C)Nc1ccccc1 | 55%[activator] | 0%
Cc1cccc(OCc2nc(C#N)c(N3CCOCC3)o2)c1 | 0% | 26%
COc1cn(CC(=O)Nc2cccc(C)c2C)c(CN2CCCCC2)cc1=O | -1% | 5%
COc1ccc2c(c1)NC(c1cccnc1)=NC(c1ccc(F)cc1)=N2 | 11% | 161%[activator]
CC(=O)Oc1ccc(C(=O)Nc2cccc(-c3nc4cc(C)ccc4o3)c2)cc1 | -3% | 0%
COC(=O)c1ccc(COC(=O)CCC(=O)c2ccc3c(c2)OCCCO3)cc1 | -4%[1.06 µM] | 12%
Cc1ccc(-c2cc(C(=O)N3CCCCC3)c3cc(Br)ccc3n2)o1 | 7% | 1%
Nc1nn(-c2ccccc2)nc1C(=O)OCc1ccccc1 | 21% | 141%[activator]
CC(C)Cn1cc(NC(=O)Nc2cccc(C(F)(F)F)c2)c2ccccc2c1=O | -18% | 0%
COc1ccc2cc(C(=O)N(Cc3ccc(C)o3)C3CC3)[nH]c2c1 | 15% | 84%[activator]
Cc1ccc2[nH]c(CSc3nnc(NC(=O)c4ccccc4F)s3)cc(=O)c2c1 | ? | ?
CCCc1cc(=O)n2c(C(=O)NCc3ccccc3)c(C(=O)Nc3cccc(C)c3C)sc2n1 | -5% | 3%
COc1ccc(C2CC(=O)c3c([nH]c(C(=O)OC4CCCCCC4)c3C)C2)cc1 (stereo not given) | -13% | -7%
CC(=O)NNC(=S)Nc1ccccc1F | 2% | 0%
COc1ccc(Cl)cc1NS(=O)(=O)c1c(C)[nH]c(=O)[nH]c1=O | -5% | -8%
COc1ccc(Nc2cc(C)nc3c(OC)cccc23)cc1 | -16% | -9%
Cc1cccc(NC(=O)CC(C)(C(=O)O)c2ccccc2)c1C (stereo not given) | 12% | 9%
Cn1c(=O)n(CCC(=O)N2CCCC2)c(=O)c2cc(S(=O)(=O)Nc3ccc(C#N)cc3)ccc21 | 1% | 8%
Cn1c(=O)c2sccc2n2c(CCC(=O)NCc3ccccc3)nnc12 | -5% | -8%
Cc1cccc(NC(=O)CCn2nc(C)c3c(C)n(-c4ccccc4)nc3c2=O)c1C | -11% | -15%
O=C(CSc1nc(Cl)nc2nc[nH]c12)NCCc1c[nH]c2ccc(F)cc12 | 3% | ?
CC(C)c1ccc(S(=O)(=O)c2nnn3c2nc(NCc2cccs2)c2sccc23)cc1 | 1% | -10%
Cc1c(Br)cc(C(=O)NC2CC3CCC2(C)C3(C)C)c(C)c1C (stereo not given) | 57%[activator] | 11%
COc1ccc(CC(=O)NCc2nnc(SCC(=O)c3ccc(Cl)cc3Cl)n2C)cc1 | -18% | -20%
CCc1cc(C(=O)Cc2csc(-c3ccccc3)n2)c(O)cc1O | ? | ?
COc1ccccc1CNC(=O)CCCn1c(=O)c2ccccc2n(Cc2ccc(F)cc2)c1=O | -5% | -10%
O=C(O)c1ccc(/C=C/C(=O)c2ccccc2Cl)cc1 | 11% | 76%[activator]
CCNC(=O)NC(=O)CN1CCN(c2oc(C3CC3)nc2C#N)CC1 | 1% | -5%
Cc1ccc(OCc2nc(C#N)c(N3CCCCCC3)o2)cc1 | 30%[activator] | 5%
O=C(c1cc(-c2ccccc2)nc2ccccc12)N1CCN(c2ncccn2)CC1 | 20% | 18%
O=C(CCc1nc2ccccc2s1)NCCc1cccc(F)c1 | 0% | 37%
CCc1ccc(NC(=O)Cn2c(-c3cncs3)nc3ccccc32)cc1 | -5% | -13%
CCOc1ccc(S(=O)(=O)NCCc2csc3nc(-c4ccc(F)cc4)nn23)cc1 | 31%[activator] | ?
Cc1cc(C)c(NC(=O)Cn2c(=O)n(CC3CCCO3)c(=O)c3ccccc32)c(C)c1 (stereo not given) | 5% | 0%
Cc1cc(C)cc(NC(=O)CSc2nc3c(oc4ccccc43)c(=O)n2-c2ccccc2F)c1 | -13% | 2%
O=C(Nc1ccn(Cc2ccc(F)cc2Cl)n1)c1nc2ncccn2n1 | -6% | 21%
CCCC12CN3CC(C)(CN(C1)C3c1cn(C)c3ccccc13)C2=O (stereo not given) | -4% | -9%
Cc1cc(S(=O)(=O)N2CCN(C(=O)c3ccc(-n4cccc4)cc3)CC2)ccc1Br | -12% | -17%
Clc1ccc(-c2nc(-c3ccccn3)no2)cc1 | 6% | -70%
COc1ccc(-c2noc(CN(C(=O)c3cc(OC)c(OC)c(OC)c3)C3CCCCC3)n2)cc1 | 30% | -8%
CN(CC(=O)Nc1ccc(Cl)c(Cl)c1)C(=O)c1ccccc1SCC(=O)N1CCCC1 | 0% | -27%
O=C(OCc1ccc(C(F)(F)F)cc1)c1cc2c(cc1[N+](=O)[O-])OCCO2 | -10% | 30%
COc1ccc(-c2nc(SCC(=O)NC3CCCC3)c(-c3ccccc3)[nH]2)cc1OC | 58%&-4%[activator] | 81%&20%[activator]
COc1ccc(CN(C(=O)c2cc3ccccc3s2)C2CC2)cc1 | 98%[activator] | 116%[activator]
O=C(NCCc1c[nH]c2ccccc12)c1ccccc1 | 6% | 189%[activator]
COC(=O)c1cccc(NC(=O)N(C)CCc2c(C)nn(C)c2C)c1 | -7% | 9%
Cc1ccc(OCC(=O)Nc2ccc3oc(-c4ccccc4)nc3c2)cc1C | -1% | 42%[activator]
COc1ccccc1-c1nn(-c2ccccc2)cc1C(=O)NCC(C(C)C)N1CCOCC1 (stereo not given) | 36%[activator] | -15%
COCCn1c(C)cc(C(=O)CSc2nnc(-c3ccccc3OC)n2-c2ccc(Cl)cc2)c1C | -11%[1.06 µM] | -17%

5 of the compounds above, with two lines to a compound.
Results follow in this order: StopGo RLuc	StopGo FLuc
- CC(=O)c1cccc(NC(=O)c2ccc(-n3c(C)nnc3C)cc2)c1
 : -5%	-3%
- Cn1cc(C(C(=O)O)N2CCN(C=O)CC2)c2cc(C(=O)O)ccc21 (stereo not given)
 : 0%	6%
- Cc1cc2nc(SCC(=O)Nc3ccc(Br)cc3F)[nH]c(=O)c2[nH]1
 : -27%	-17%
- COC(=O)[C@@H](C)NC(=O)NCc1ccc(C)cc1
 : -7%	-1%
- COc1ccc(-c2nc(CN3CCC(C(=O)NCCCOC(C)C)CC3)c(C)o2)cc1OC
 : -14%	-4%

(cont.)
molecule | StopGo RLuc | StopGo FLuc
OC(CCCN1CCCCC1)(c1ccccc1)c1ccccc1 | 5% | -15%[11.5 µM]
Cc1cc(OCC(=O)Nc2ccc3c(c2)OCCO3)c2c(C)c(C)c(=O)oc2c1 | -6% | 104%[activator]
Cc1ccc(C(=O)Nc2ccc3nc(SCC(=O)N4CCc5ccccc54)sc3c2)cc1 | -7% | 7%
Cc1nc2cc(NC(=O)COc3cc(Cl)ccc3Cl)ccc2o1 | 2% | 22%
O=C(OC1CCCCC1=O)c1ccc(Cl)c(Cl)c1 (stereo not given) | 3% | 13%
O=C(Nc1ccccc1N1CCCC1)c1cc(Cl)c2c(c1)OCCO2 | 18% | 46%[activator]
COc1ccccc1NC(=O)CN1C(=O)CCSc2ccccc21 | 34%[activator] | -2%
Cc1ccc2[nH]cc(CCNC(=O)c3ccc(C(F)(F)F)cc3)c2c1 | -11% | 11%
Cc1nc2nc(NCc3ccc(Br)cc3)[nH]n2c(=O)c1Cc1ccccc1 | -2% | -13%

Source: PubChem BioAssay (National Center for Advancing Translational Sciences (NCATS))

The list is partial; the hit share may differ from the screen's.
